Screening results deposited in PubChem BioAssay by National Center for Advancing Translational Sciences (NCATS).
Rango-impB inh: prevents formation of the Rango-importin beta complex; Q14974; Rango CFP/YFP FRET sensor + importin beta, 45 min; Potency, µM (top dose mostly 92.2 µM), without a hit: top-dose inhibition of complex formation; hit rate 0.031% among 340,000; AID 540263; active = rising FRET ratio curve, often small or poorly fitted; inconclusive = mostly compound fluorescence or quenching in the first reads; inactive = flat curves in all reads;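 also: potency is read from the fitted curve at half-maximal effect; 0% = DMSO wells and 100% = buffer wells lacking importin beta; nearly all actives have a fitted effect of over 15% in size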
Target sequence (Q14974 whole entry, looked up): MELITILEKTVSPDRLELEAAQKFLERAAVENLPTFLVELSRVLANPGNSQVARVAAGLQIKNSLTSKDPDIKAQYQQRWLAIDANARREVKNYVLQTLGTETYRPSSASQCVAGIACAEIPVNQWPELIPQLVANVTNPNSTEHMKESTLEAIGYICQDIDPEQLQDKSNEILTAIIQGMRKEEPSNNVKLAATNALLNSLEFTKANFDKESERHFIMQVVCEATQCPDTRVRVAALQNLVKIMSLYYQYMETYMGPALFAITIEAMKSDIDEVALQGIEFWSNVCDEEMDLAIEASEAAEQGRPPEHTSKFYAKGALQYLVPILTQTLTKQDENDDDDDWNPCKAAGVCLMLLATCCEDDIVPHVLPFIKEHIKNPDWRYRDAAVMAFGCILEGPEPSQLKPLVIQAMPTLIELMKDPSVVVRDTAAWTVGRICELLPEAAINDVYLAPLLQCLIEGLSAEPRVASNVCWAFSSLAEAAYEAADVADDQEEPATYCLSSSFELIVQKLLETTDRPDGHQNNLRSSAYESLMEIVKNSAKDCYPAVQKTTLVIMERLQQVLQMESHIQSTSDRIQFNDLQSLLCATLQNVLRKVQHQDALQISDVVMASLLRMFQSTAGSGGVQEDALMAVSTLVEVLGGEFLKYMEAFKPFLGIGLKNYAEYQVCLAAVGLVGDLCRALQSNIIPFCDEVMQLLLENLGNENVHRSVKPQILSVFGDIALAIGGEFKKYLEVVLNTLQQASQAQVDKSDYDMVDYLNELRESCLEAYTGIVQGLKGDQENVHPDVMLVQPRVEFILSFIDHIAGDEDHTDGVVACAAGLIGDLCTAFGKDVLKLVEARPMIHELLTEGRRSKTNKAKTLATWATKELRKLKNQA
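FRET biosensor (snurportin 1 IBB flanked by EYFP and cerulean), 50 nM, with compound 5 min, then 0.125 microM importin beta in PBS, 1 mM DTT, 0.02% Tween-20, 0.1% BSA. CFP/YFP ratio read after 45 min at room temperature; pre-read flags interference.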
Rango dissoc inh: prevents RanGTP from dissociating the Rango-importin beta complex; O95149+P62826; Biochemical FRET Rango-importin beta, RanGTP-induced dissociation; Potency, µM (titrated, usually from 46.1 µM), inactives show at the top dose activity change, negative = inhibition; hit rate 0.071% among 340,000; AID 540253; active means falling FRET ratio curve, often poorly fitted, with flat reads before Ran was added; inconclusive means other falling curves, or compound fluorescence or quenching; inactive means flat or rising ratio curve;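 also: potency is read from the fitted curve at half-maximal effect; % of control where 0% means no effect; nearly all actives have a fitted effect of over 45% in size; -100% = wells without RanGTP and RCC1; the record marks most hits as doubtful in a second field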
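Rango/importin beta premix (0.1/0.25 uM final), PBS + 1 mM DTT + 0.02% Tween-20 + 0.1% BSA; cpd 5 min RT; FRET pre-read; + RanGTP-RCC1 (0.6 uM Ran, 2 mM GTP, 0.2 uM RCC1); 45 min RT; FRET post-read, ex 430, em 486/530 nm.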
miR-21 FLuc: raises the signal of a miR-21 reporter; HeLa miR-21 FLuc reporter, luciferase, 48 h; AID 2288; Potency, µM (highest dose often 38.3 µM), inactives show top-dose reporter change, positive = more light; 340,000 tested, under 10 active; active = well fitted rising curve with a large enough effect; inconclusive = small, poorly fitted or top-dose-only effect; inactive = no such curve, though single readings can be large or run the other way;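 also: % of control where 0% means no effect; miR-21 action dims this reporter so a rising signal means less miR-21 action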
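HeLa cells endogenously expressing miR-21, stably carrying CMV-driven firefly luciferase with a downstream miR-21 binding site, 2000 cells/well. Titrations up to approximately 40 uM, 48 hours; luciferase luminescence read.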
GLA inh pH 4.5: inhibitors of human alpha-galactosidase A at pH 4.5 | P06280 | purified enzyme, 4-MU-alpha-Gal fluorescence, pH 4.5 | activity change, negative = inhibition, % at 105 µM | 230,000 tested, under 10 active; inconclusive = small, poorly fitted or top-dose-only inhibition, or a rising curve; inactive = flat fitted curve, though single readings scatter; no compound was filed as active;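 also: 0% = full activity with enzyme and -100% = basal without enzyme; dose as in the result columns while the protocol names 77 µM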
An asterisk follows results filed as active; u = inconclusive; x = no result given. The list is partial. The share of hits here may be higher or lower than overall.

entry | mol | Rango-impB inh | Rango dissoc inh | miR-21 FLuc | GLA inh pH 4.5
1 | C[C@@H]1CN([C@H](C)CO)C(=O)c2cc(NC(=O)c3ccncc3)ccc2O[C@@H]1CN(C)C(=O)Nc1ccccc1 | 1.6% | 18% | x | x
2 | CCOc1cccc2c1OC1(C)CC2NC(=O)N1c1cccc(Cl)c1 (centres undefined) | 2.6% | 2% | 4% | 3
3 | C/C(=N\OC(=O)c1ccc(F)cc1)c1sc(-c2ccc(Cl)cc2)nc1C | -0.1% | -7% | x | x
4 | CS(=O)(=O)Oc1ccc(Br)cc1/C=C1/N=C(c2ccco2)OC1=O | u | -24% | 0% | 10
5 | Cn1c(=O)c2c(nc(SCC(=O)NCc3ccc4c(c3)OCO4)n2Cc2ccc(F)cc2)n(C)c1=O | 0.2% | 2% | -2% | -1
6 | C=CCOc1ccc(/C=C2\N=C(C)OC2=O)cc1OC | 4.9% | -18% | 4% | 6
7 | CCOc1cc(/C=N/Nc2nc(=O)[nH]nc2C)ccc1O | u | 0% | 0% | -14
8 | O=C(CCNS(=O)(=O)c1ccccc1)N1CCOCC1 | -0.4% | -19% | 0% | x
9 | COc1ccc(-n2ncc3c(N4CCCc5ccccc54)ncnc32)cc1 | 0.3% | 1% | -69% | -21
10 | O=C(Nc1cccnc1)c1cc(-c2ccccc2)on1 | 0.1% | 7% | -6% | 1
11 | CN(C)Cc1cc(C(C)(C)C)c(O)c(C(C)(C)C)c1 | -7.2% | 2% | -5% | 0
12 | CCCn1nc(NC(C)=O)c2cc3cccc(C)c3nc21 | 2.5% | u | -5% | x
13 | COC(=O)C1=C(C(=O)OC)[C@@H]2N(C)c3ccccc3[C@@]23C[C@@H](CO)N(C(=O)C2CCC2)C3=N1 | 0.3% | 11% | x | -5
14 | Cc1ccc2c(CC(=O)OC(C)C(=O)Nc3ncc(Cl)cc3Cl)coc2c1 (centres undefined) | -0.4% | 7% | -3% | 3
15 | CSc1sc(C(=O)NNC(C)=O)c2c1C=CCC2 | 0.8% | 7% | -3% | 3
16 | COc1ccc(-c2cc(N)n(S(=O)(=O)c3ccc(F)cc3)n2)cc1OC | 0.9% | 4% | 17% | -4
17 | O=c1cc(-c2nn[nH]n2)[nH]c(=O)[nH]1 | -1.3% | 19% | x | x
18 | COC(=O)C1=C(C(=O)OC)[C@]2([C@@H]3CCCCN[C@@H](Cc4ccccc4)C(=O)N3Cc3ccccc3)C=C[C@H]1O2 | -1.6% | 6% | x | x
19 | CC1CCCCN1C(=O)C1CCN(c2nc(-c3ccccc3)nc3c2CCC3)CC1 (centres undefined) | 2.2% | -9% | -8% | x
20 | Cc1ccc(C)c(S(=O)(=O)NCC(=O)OCC(=O)Nc2sccc2C(N)=O)c1 | -2.9% | -2% | x | x
21 | COc1ccc(Cn2c(=O)[nH]c3cc(C(=O)NCCCN4CCCC4)ccc3c2=O)cc1 | 2.5% | -1% | 6% | 13
22 | COc1ccc(NC(=O)CN(C)C(=O)C2CCCO2)cc1 (centres undefined) | -1.8% | 13% | x | x
23 | Cc1cc2cc(C)c3nnc(SCC(=O)N4CCc5ccccc54)n3c2cc1C | x | x | 1% | u
24 | COc1ccc(NC(=O)c2ccc(C(=O)c3ccccc3)o2)cc1 | 2.4% | 5% | -23% | -7
25 | O=C(O)CCCNc1c(C(=O)Nc2ccc(Cl)cc2)cc([N+](=O)[O-])cc1[N+](=O)[O-] | 1.5% | 8% | -5% | -14
26 | CCn1c(=N)n(CC(O)COc2cccc(C)c2)c2ccccc21 (centres undefined) | 0.2% | 5% | 17% | -3
27 | O=C(COc1ccccc1)Nc1ccc(N2CCCCC2)cc1 | -4.1% | -16% | x | x
28 | Cc1cc2nc3c(c(=O)n2[nH]1)CCCC3 | -0.9% | -9% | -10% | 1
29 | Cc1nn(Cc2ccc(F)cc2)c(Cl)c1/C=N/NC(=O)c1ccccc1 | -2.4% | 14% | -17% | 5
30 | CC(C)Cc1ccc(C(C)NC(=O)c2ccc(=O)[nH]c2)cc1 (centres undefined) | 0.0% | 0% | 0% | -3
31 | COc1cccc(N2CCN(CC(=O)NC3=Nc4ccccc4N=C(C)C3c3ccccc3)CC2)c1 (centres undefined) | 3.5% | 0% | 7% | -10
32 | CC(=O)c1ccc(OCCCC(=O)N2CCN(S(=O)(=O)c3ccc(C(C)C)cc3)CC2)cc1 | 2.3% | -25% | x | x
33 | CC1CCc2ccccc2N1CC(=O)Nc1cccc(S(=O)(=O)N2CCCC2)c1 (centres undefined) | -0.2% | 14% | x | x
34 | CCCc1cc(C(=O)N2CCCC(C(=O)c3cccc4ccccc34)C2)n(C)n1 (centres undefined) | -4.3% | -2% | 5% | 2
35 | CCc1ccccc1NC(=O)CNC(=O)c1ccc(-n2cncn2)c([N+](=O)[O-])c1 | 0.2% | 12% | x | x
36 | Cc1cc(C)c(C2=Nn3c(C)nnc3SC2C)cc1C (centres undefined) | 0.5% | -1% | 2% | x
37 | COc1ccc(OC)c(CNC(=O)Cc2c(C(=O)O)[nH]c3ccccc23)c1 | 0.7% | -6% | -1% | 3
38 | Cc1ccc(S(=O)(=O)Nc2cc(-c3ccccc3)nn2C)cc1 | -1.7% | 9% | -2% | -5
39 | COc1ccc(NC(=O)c2cc(-c3ccc4c(c3)OCO4)on2)cc1 | 0.7% | -9% | -6% | x
40 | CC1=NN(C(=O)c2ccoc2C)C(O)(C(F)(F)F)C1 (centres undefined) | 3.1% | 40% | -60% | 2
41 | COc1ccccc1N(C(=O)Cn1nnc(-c2ccc(C)o2)n1)C(C(=O)NC1CCCC1)c1ccncc1 (centres undefined) | 1.7% | 5% | -2% | x
42 | Cc1cc(=O)oc2c3c(cc(OCC(=O)NCc4ccncc4)c12)OC(C)(C)CC3 | 1.0% | 5% | -10% | x
43 | COc1ccc(C(=O)c2cc([N+](=O)[O-])ccc2N2CCCC2)cc1 | -0.3% | -5% | 21% | -7
44 | COc1ccccc1CNC(=O)CN(c1cccc([N+](=O)[O-])c1)S(C)(=O)=O | -1.1% | 9% | 0% | -4
45 | Cc1cccc(NC(=O)CNC(=O)COc2ccc(-c3ccc(C#N)cc3)cc2)c1C | u | 5% | -2% | 11
46 | COc1ccc(/C=N/N=C2\SCC(=O)N2c2c(C)n(C)n(-c3ccccc3)c2=O)cc1OC | u | 2% | 4% | 0
47 | CC(C)(C)c1ccc(OCC(=O)Nc2cccc(S(=O)(=O)NC3=NCCCCC3)c2)cc1 | -4.3% | 8% | x | x
48 | Cc1ccc(S(=O)(=O)NCC(=O)N(CC(=O)NCc2ccco2)Cc2ccccc2)cc1 | -0.6% | -10% | -1% | x
49 | CCN(CC)C(=S)Nc1ccc(OC(F)F)cc1 | -0.1% | -1% | 2% | 12
50 | CN(C)S(=O)(=O)c1ccc(Cl)c(NC(=O)COC(=O)CCC2CCCCC2)c1 | -1.0% | -3% | x | x

Molecules above containing a thiophene ring, fused or not (2):
entry | mol | Rango-impB inh | Rango dissoc inh | miR-21 FLuc | GLA inh pH 4.5
15 | CSc1sc(C(=O)NNC(C)=O)c2c1C=CCC2 | 0.8% | 7% | -3% | 3
20 | Cc1ccc(C)c(S(=O)(=O)NCC(=O)OCC(=O)Nc2sccc2C(N)=O)c1 | -2.9% | -2% | x | x

Compound profiles, from the list above. Order of values: Rango-impB inh, Rango dissoc inh, miR-21 FLuc, GLA inh pH 4.5
O=C(CCNS(=O)(=O)c1ccccc1)N1CCOCC1 across the screens: -0.4%, -19%, 0%, x
COc1ccc(NC(=O)CN(C)C(=O)C2CCCO2)cc1 (centres undefined) across the screens: -1.8%, 13%, x, x
COc1ccc(-c2cc(N)n(S(=O)(=O)c3ccc(F)cc3)n2)cc1OC across the screens: 0.9%, 4%, 17%, -4
CCCc1cc(C(=O)N2CCCC(C(=O)c3cccc4ccccc34)C2)n(C)n1 (centres undefined) across the screens: -4.3%, -2%, 5%, 2
O=C(O)CCCNc1c(C(=O)Nc2ccc(Cl)cc2)cc([N+](=O)[O-])cc1[N+](=O)[O-] across the screens: 1.5%, 8%, -5%, -14

Going on with the list.
entry | mol | Rango-impB inh | Rango dissoc inh | miR-21 FLuc | GLA inh pH 4.5
51 | Cc1cc(C)n(-c2ccc(Cl)c(C(=O)O)n2)n1 | 0.3% | 10% | -2% | 2
52 | O=C(CCCC(=O)N1CCN(c2ccccc2F)CC1)c1ccccc1 | 7.5% | 8% | -51% | x
53 | N#Cc1c(N2CCCCC2)nc(N2CCCCC2)c2c1CCN(Cc1ccccc1)C2 | u | u | 14% | 1
54 | COc1ccc(CN2CCN(C(=O)c3ccc(-c4ccccc4)cc3)CC2)c(OC)c1OC | -3.5% | -10% | -1% | -9
55 | CCN=C1SC(CC(=O)NC(N)=O)C(=O)N1CC (centres undefined) | -3.3% | -5% | 0% | -6
56 | CCOc1ccc(S(=O)(=O)N2CCN(Cc3ccc4c(c3)OCO4)CC2)cc1C | 2.1% | -3% | -3% | x
57 | Cc1ccc(S(=O)(=O)Nc2ccc(C(=O)Nc3cc(C)on3)cc2)cc1 | 0.5% | 16% | -2% | -8
58 | Cc1cccc2cc3cccc(C)c3nc12 | 1.5% | 10% | -6% | -7
59 | CCOc1ccccc1N(CC(=O)NC(C)(C)C)C(=O)CCC(=O)Nc1nccs1 | -1.4% | 11% | 0% | x
60 | Cc1ccc2nc(-c3cccc(S(=O)(=O)N4CCCC4)c3)cn2c1 | -0.1% | -10% | -15% | x
61 | NC(=O)[C@@H]1CC2(CC(c3cccc(NC(=O)CC(c4ccccc4)c4ccccc4)c3)=NO2)CN1C(=O)[C@@H]1CCC(=O)N1 (some centres undefined) | 0.6% | 8% | 4% | 7
62 | CCOC(=O)c1[nH]cnc1C(=O)Nc1ccccc1OC | 3.5% | 2% | -8% | 2
63 | CC1CCN(CC(=O)NC2CCCCC2)CC1 | 2.4% | 9% | -6% | x
64 | Cn1nc(OCCOc2ccccc2)ccc1=O | -0.6% | 8% | -5% | 11
65 | O=C(/C=C/c1ccncc1)c1cc(Cl)ccc1O | u | -1% | -5% | -3
66 | O=C(N[C@H](Cc1ccc(Cl)cc1)C(=O)O)OCC1c2ccccc2-c2ccccc21 | 2.5% | -2% | 3% | x
67 | CCN1C(=O)C(CC(=O)Nc2ccc(OC)cc2)N(CCCN2CCN(c3ccc(OC)cc3)CC2)C1=S (centres undefined) | 1.1% | 2% | 12% | -12

Structures above with a cyano group (2):
entry | mol | Rango-impB inh | Rango dissoc inh | miR-21 FLuc | GLA inh pH 4.5
45 | Cc1cccc(NC(=O)CNC(=O)COc2ccc(-c3ccc(C#N)cc3)cc2)c1C | u | 5% | -2% | 11
53 | N#Cc1c(N2CCCCC2)nc(N2CCCCC2)c2c1CCN(Cc1ccccc1)C2 | u | u | 14% | 1

Nothing new here: three of the compounds above.
entry | mol | Rango-impB inh | Rango dissoc inh | miR-21 FLuc | GLA inh pH 4.5
51 | Cc1cc(C)n(-c2ccc(Cl)c(C(=O)O)n2)n1 | 0.3% | 10% | -2% | 2
52 | O=C(CCCC(=O)N1CCN(c2ccccc2F)CC1)c1ccccc1 | 7.5% | 8% | -51% | x
53 | N#Cc1c(N2CCCCC2)nc(N2CCCCC2)c2c1CCN(Cc1ccccc1)C2 | u | u | 14% | 1
